# PrP 5UTR inh = inhibition of PrP 5' UTR reporter expression; cell-based PrP 5' UTR mRNA reporter, plate reader; inhibition, % (concentration not given with the values); 340,000 compounds, 0.35% hits; AID 488862;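 active = every replicate at 50% or more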;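 also: 0 = median of the neutral control wells; tested in H4 reporter cells; numbers are from one replicate; inactives centre near -14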
# Sa ugtP lethal = kills S. aureus RN4220 lacking UgtP | S. aureus RN4220 ugtP deletion, OD600 growth, 16 h; some inactives read as strong as hits | growth inhibition, % (concentration not given with the values) | 330,000 compounds, 0.54% hits | AID 1259309;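 active = z-score under -3 and OD600 up to 0.15 on both plates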;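 also: plate controls were untreated wells for no effect and antibiotic for full effect; wells of about 80 µL received 100 nL stock; the first replicate is given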
# Mtb hypoxia inh = inhibitors of hypoxia-regulated fluorescent reporter in Mycobacterium tuberculosis; 300,000 compounds, 0.1% hits; fluorescence inhibition, % (no concentration beside the values); M. tuberculosis hypoxia-regulated fluorescent reporter, fluorescence;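 active = 35 to 45% if threefold the growth effect, above 45% if 1.5-fold the growth effect; inactive = the rest, general growth blockers included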;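 also: wells of about 50 µL received 100 nL stock; 0% = vehicle wells and 100% = reference inhibitor wells; whole bacteria with a GFP reporter of the hypoxia response; strong numbers were not always called active; many hits fall short of the cut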
# BJeLR viability = kills HRASV12-expressing BJeLR cells | BJeLR (HRASV12) viability, CellTiter-Glo ATP luminescence, 48 h; reference of the scale not given here | inhibition, % (no concentration beside the values) | 300,000 compounds, 0.17% hits | AID 1554;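 active = replicate mean above 50%; inconclusive = above 50% but judged a plate artefact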;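 also: 50 nL library stock added to about 25 µL; numbers are from one replicate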
# Bead autofluor = flagged as autofluorescent in microsphere protease counterscreen; compound autofluorescence counterscreen, microsphere flow cytometry; stronger effect = higher value; fluorescence intensity (test concentration not listed); AID 624483; 360,000 compounds, 3.1% hits;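 active = at least 3 SD above the mean of all compounds, about 16000 in these data; inconclusive = too few beads counted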;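 also: 100 nL of 1 mM stock went into each well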
# RN4220 kill = S. aureus RN4220 growth inhibition. inhibition, % (no concentration beside the values). AID 1259311. 330,000 compounds, 0.33% hits. OD600, 16 h;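 active = z-score of -3 or lower and OD600 up to 0.18 on both plates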;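 also: plate controls were untreated cells for no effect and reference antibiotic for full effect; stock transfer was 100 nL into about 80 µL; one replicate is shown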
# Mtb hypoxia inh growth = second read-out of Mtb hypoxia inh, no call of its own (marks repeat the call); growth inhibition, %; measured here: M. tuberculosis growth (absorbance);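 0% = vehicle and 100% = reference antibiotic; read after six days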
# The depositor's hits bear a star; ? = inconclusive; nt = no result given.
SMILES,PrP 5UTR inh,Sa ugtP lethal,Mtb hypoxia inh,Mtb hypoxia inh growth,BJeLR viability,Bead autofluor,RN4220 kill
Cc1cc(C)c2[nH]c(=O)c(CN(CC3CCCO3)S(=O)(=O)c3ccc4c(c3)OCCO4)cc2c1 (stereo not drawn),-7,-7,-1,7,-10,21471*,-2.5
CN(C)c1ccc(N=Nc2ccccc2C(=O)OCC(=O)N(C)c2ccccc2)cc1,-22,-1,5,1,2,2485,7.4
CCCC1=C(C(=O)OCC)C(c2ccc(F)cc2)n2ncnc2N1 (stereo not drawn),-11,-3,1,5,7,3021,-1.2
CCCS(=O)(=O)N1CCC(C(=O)N2CCC3(CC2)OCCO3)CC1,-19,1,12,6,-3,2956,-9.2
COc1cccc(NC(=O)c2nn(C)c3c2CS(=O)(=O)c2ccccc2-3)c1,-9,2,6,5,-1,5401,0.2
COc1ccc(N(C(=O)c2cccnc2)S(=O)(=O)c2ccc3c(c2)n(C)c(=O)n3C)cc1,-24,-7,12,8,3,3012,7.5
C#CCCCCCCCCC(=O)NCCCC,-4,3,13,9,0,2749,2.3
O=C(c1ccccc1)N1CCN(c2ccc([N+](=O)[O-])c(NCc3ccco3)c2)CC1,-20,7,nt,nt,5,4315,-4.0
Cc1nc(C(=O)N2CCCC(C(=O)c3cccc(OC(C)C)c3)C2)cs1 (stereo not drawn),8,11,-2,-6,-2,?,4.7
O=C(CSc1nncs1)NC(=O)NC1CCCC1,-16,0,10,11,9,4459,8.3
O=C(Nc1ccccc1)OCc1cn(-c2ccc(Cl)cc2)nn1,-20,-4,9,-4,7,10266,1.2
Cc1ccnn1CC(=O)NN=Cc1ccco1,nt,-2,3,10,nt,nt,-1.0
CC1(c2cccc(Br)c2)NC(=O)N(CC(=O)NCC2CCCO2)C1=O (stereo not drawn),-6,0,9,6,nt,8923,6.7
O=C(Nc1cccnc1)c1sc(Nc2ccccc2)nc1-c1ccccc1,-10,-5,9,-5,5,2212,2.1
Cc1ccc(C)c(N2CCN(S(=O)(=O)c3cccc4cccnc34)CC2)c1,-14,-1,-2,4,-15,4889,3.1
O=C(CN1C(=O)CSc2ccc(S(=O)(=O)N3CCOCC3)cc21)NCCCN1CCOCC1,-22,8,9,7,-6,3596,7.0
O=C(Nc1ccc2c(c1)C(N1CCOCC1)c1ccccc1-2)C(F)(F)F (stereo not drawn),-17,2,6,12,nt,3950,2.8
O=C(Nc1ccc(C(F)(F)F)cc1)N1CCN(c2ccnc3cc(Cl)ccc23)CC1,-10,-25,-3,0,-5,4244,-12
COC(=O)c1ccccc1NC(=O)Nc1cc(C(C)(C)C)on1,-27,nt,nt,nt,9,5246,nt
COc1ccc2c(C)cc3nncn3c2c1,-11,-2,6,5,-3,4497,-0.6
O=C(NC1CCCN(Cc2ccc(Cl)cc2)C1)c1cnc2ccccn2c1=O (stereo not drawn),5,-3,-5,7,17,6918,0.3
O=C(O)C1CC=CCC1C(=O)Nc1ccccc1 (stereo not drawn),-20,4,10,6,-3,3312,0.6
CCOC(=O)c1c(NC(=S)NC(=O)c2ccc(Cn3cc(Cl)cn3)o2)sc2c1CCC(C)C2 (stereo not drawn),-66,nt,nt,nt,5,2845,nt
CC(=O)c1ccc(S(=O)(=O)Nc2ccc(C(=O)NC3CC3)cc2)cc1,-6,0,9,-5,nt,4512,1.7
O=C(c1ccc2ccccc2c1)N1CCN(S(=O)(=O)/C=C/c2ccccc2)CC1,-28,3,4,4,7,2292,-2.0
# Next entries follow.
SMILES,PrP 5UTR inh,Sa ugtP lethal,Mtb hypoxia inh,Mtb hypoxia inh growth,BJeLR viability,Bead autofluor,RN4220 kill
O=C(CSc1nc2ccccc2o1)N1CCOCC1,-11,9,6,10,-1,4868,0.6
CCC(C)NCC(=O)Nc1cc(S(=O)(=O)N(CC)c2ccccc2)ccc1Cl (stereo not drawn),-22,3,11,-2,-14,2259,7.5
c1ccc(Nc2nc(-c3cccs3)cs2)nc1,-53,-1,nt,nt,5,4768,0.6
COC(=O)/C=c1/s/c(=C(/C#N)C(=O)NCc2ccccc2)n(-c2ccccc2)c1=O,-1,nt,nt,nt,-1,8698,nt
CC1CCN(C(=O)CSc2nnc3c(n2)[nH]c2ccc(F)cc23)CC1,-10,8,3,-3,5,5521,1.3
CN(C)c1cccc(C(=O)NNC(=O)NC2CCCCC2)c1,10,12,6,-1,6,9677,1.9
COc1ccc(N=C2SC(C(=O)Nc3ccc(OC)cc3)CC(=O)N2CCN2CCOCC2)cc1 (stereo not drawn),-5,1,1,2,-1,2662,-2.0
Cc1ccc(NC(=O)Cn2nnc(C(=O)NCc3ccco3)c2N)cc1,-7,-2,5,8,5,8965,0.7
CC1(C)Cc2ccccc2-c2nnc(SCc3ccccc3)n21,-46,-12,9,7,1,8566,11
Cc1cc(C(=O)O)ccc1-c1ccc(C=Nn2cnnc2)o1,nt,-5,-5,-7,nt,nt,4.2
CC(C)c1nc(NCCO)c2nnn(Cc3ccccc3)c2n1,-18,3,-1,-5,-11,3905,3.6
CC(Cc1ccccc1)=NNC(=O)CNC(=O)c1ccccc1,nt,4,-9,5,nt,nt,-0.6
CCOc1ccc(C(C(=O)NC(C)(C)C)N(CCOC)C(=O)CCC(=O)Nc2ccccn2)cc1 (stereo not drawn),-17,1,-10,6,-19,5619,4.1
O=S(=O)(c1ccc(-c2csc(Nc3ccc(Br)cc3)n2)cc1)N1CCCC1,-3,-31,5,-5,9,2564,-9.9
CCCCCCCC(N)C(O)C(=O)N(C)C(CCS(C)=O)C(=O)NC(Cc1ccc(O)cc1)C(=O)NC(Cc1ccc(O)cc1)C(=O)O (stereo not drawn),nt,1,18,12,nt,nt,5.4
O=C(NCc1ccc(Cl)cc1)c1cc2c(s1)CS(=O)(=O)C2,-14,19,11,0,13,4355,-1.4
O=C(Cc1csc(NC(=O)Nc2ccc(Cl)cc2)n1)NCc1ccccn1,-35,-6,0,1,-3,nt,-1.9
COC(=O)Cc1ccc(NC(=S)N2CCN(c3ccccn3)CC2)cc1,-11,9,5,6,-6,2756,3.6
C=C1C(OC(C)=O)CC[C@]2(C)C1CC1CC(OC(C)=O)C(C)=C(C(OC(C)=O)C2OC(C)=O)C1(C)C (stereo partly drawn),nt,-17,3,2,nt,nt,14
CSc1ccc(S(=O)(=O)N2CCC(C(=O)NCc3cccnc3)CC2)cc1,-20,4,3,-1,0,3126,1.6
COc1ccccc1N1CCN(C(=O)C(CC(C)C)NC(=O)C2CCCCC2)CC1 (stereo not drawn),-18,14,2,-6,1,5421,-1.3
O=C(c1cc(COc2ccc(F)cc2Cl)on1)N1CCC(c2ccncc2)CC1,11,6,-6,-9,8,4070,-1.7
Cc1cc(C)cc(N(C(=O)CNC(=O)c2ccco2)C(C(=O)NC2CCCC2)c2ccncc2)c1 (stereo not drawn),-9,9,9,-2,-3,5772,5.6
Cc1occc1C(=O)NN=Cc1cnn(C)c1C,nt,5,4,11,nt,nt,1.4
O=C(COc1ccc(Cl)cc1)Nc1ccc2c(c1)OCO2,-6,6,-7,-1,-3,3943,7.0

# Some of the entries so far, with tabs:
structure	PrP 5UTR inh	Sa ugtP lethal	Mtb hypoxia inh	Mtb hypoxia inh growth	BJeLR viability	Bead autofluor	RN4220 kill
O=C(CSc1nc2ccccc2o1)N1CCOCC1	-11	9	6	10	-1	4868	0.6
CCC(C)NCC(=O)Nc1cc(S(=O)(=O)N(CC)c2ccccc2)ccc1Cl (stereo not drawn)	-22	3	11	-2	-14	2259	7.5
c1ccc(Nc2nc(-c3cccs3)cs2)nc1	-53	-1	nt	nt	5	4768	0.6
COC(=O)/C=c1/s/c(=C(/C#N)C(=O)NCc2ccccc2)n(-c2ccccc2)c1=O	-1	nt	nt	nt	-1	8698	nt
CC1CCN(C(=O)CSc2nnc3c(n2)[nH]c2ccc(F)cc23)CC1	-10	8	3	-3	5	5521	1.3
CN(C)c1cccc(C(=O)NNC(=O)NC2CCCCC2)c1	10	12	6	-1	6	9677	1.9
COc1ccc(N=C2SC(C(=O)Nc3ccc(OC)cc3)CC(=O)N2CCN2CCOCC2)cc1 (stereo not drawn)	-5	1	1	2	-1	2662	-2.0
Cc1ccc(NC(=O)Cn2nnc(C(=O)NCc3ccco3)c2N)cc1	-7	-2	5	8	5	8965	0.7
CC1(C)Cc2ccccc2-c2nnc(SCc3ccccc3)n21	-46	-12	9	7	1	8566	11
Cc1cc(C(=O)O)ccc1-c1ccc(C=Nn2cnnc2)o1	nt	-5	-5	-7	nt	nt	4.2
CC(C)c1nc(NCCO)c2nnn(Cc3ccccc3)c2n1	-18	3	-1	-5	-11	3905	3.6
CC(Cc1ccccc1)=NNC(=O)CNC(=O)c1ccccc1	nt	4	-9	5	nt	nt	-0.6

# Two consecutive records already listed:
SMILES,PrP 5UTR inh,Sa ugtP lethal,Mtb hypoxia inh,Mtb hypoxia inh growth,BJeLR viability,Bead autofluor,RN4220 kill
Cc1occc1C(=O)NN=Cc1cnn(C)c1C,nt,5,4,11,nt,nt,1.4
O=C(COc1ccc(Cl)cc1)Nc1ccc2c(c1)OCO2,-6,6,-7,-1,-3,3943,7.0

# Next part
SMILES,PrP 5UTR inh,Sa ugtP lethal,Mtb hypoxia inh,Mtb hypoxia inh growth,BJeLR viability,Bead autofluor,RN4220 kill
C(=N\N1CCOCC1)/c1cccs1,-19,nt,nt,nt,-7,2276,nt
COc1ccc(OC)c(S(=O)(=O)N2CCC(C(=O)NC3CCCC3)CC2)c1,-17,13,0,3,4,3628,2.4
CCOc1ccc2ncc(S(=O)(=O)c3ccc(C)cc3)c(N3CCC4(CC3)OCCO4)c2c1,-3,-13,2,0,-1,2662,-0.4
CCOC(=O)Cc1csc(NC(=O)c2cccnc2)n1,-10,2,3,7,4,10709,0.4
COc1ccc(OC)c2sc(NNC(=O)COc3ccccc3)nc12,-16,-1,12,11,-2,4077,1.7
Cc1cc2oc(=O)cc(CSc3nnc(C)n3N)c2cc1C(C)C,-4,6,nt,nt,-5,3656,5.5
CCN(C(=O)c1ccc(NC(=O)Cc2ccccc2)cc1)c1ccccc1,-10,4,11,0,1,6708,0.2
O=S(=O)(c1ccc2ccccc2c1)N1CCNCC1,-7,7,3,5,1,3849,-0.6
Cc1ccc(CC2CC(=O)N(c3cc(C)ccc3C)C2=O)cc1 (stereo not drawn),-9,5,4,0,-8,4641,3.5
CS(=O)(=O)c1cnc(-c2ccccc2)nc1Sc1ccc(F)cc1,-24,9,2,1,-12,3610,1.3
CCCc1ccc(OCc2ccccc2)c2c(=O)cc(C(=O)OCC)oc12,-15,2,17,18,-6,6388,10
CCOC(=O)c1c(NC(=O)CCCC(=O)O)sc2c1CCC2,-20,nt,nt,nt,-2,4839,nt
O=C(CSc1nccn1Cc1ccc(F)cc1)NC1CCCC1,-30,5,2,3,1,6029,3.7
Cc1coc2c(C)c3oc(=O)c(CC(=O)N[C@@H](CC(C)C)C(=O)O)c(C)c3cc12,-20,5,4,-1,9,3149,2.3
Cc1ccccc1NC(=O)CC(C)S(=O)(=O)c1ccc2c(c1)NC(=O)CO2 (stereo not drawn),8,-2,6,1,0,4225,-0.7
NC(=O)c1ccccc1-c1nc(-c2ccccc2)no1,-50,-4,7,2,4,8119,4.6
COc1ccc2c(c1OC)C(=O)OC2N1C(=O)CC[C@H]1C(=O)Nc1ccc2c(c1)OCO2 (stereo partly drawn),-7,6,nt,nt,-1,3852,1.3
O=C(O)c1nonc1-c1nonc1C(=O)O,-14,9,8,9,nt,4110,3.2
COc1ccccc1CCNC(=O)C(=O)NCC1OCCN1S(=O)(=O)c1ccc([N+](=O)[O-])cc1 (stereo not drawn),-29,2,-13,2,-6,6303,12
COCCn1c(COc2cccc(OC)c2)nnc1SCC(=O)NC1CCCCC1,-9,2,-8,-3,-6,5099,-2.8
CC(NS(=O)(=O)c1ccc2c(c1)c(=O)n(C)c(=O)n2C)C(=O)NC1CCCCC1 (stereo not drawn),2,-3,-1,-8,6,4751,-1.7
COc1ccc(/C=C/C(=O)OCC(=O)NCc2ccco2)c(OC)c1,-8,-4,-3,-5,14,4677,7.4
CCCCN(Cc1cc2cc(OC)ccc2[nH]c1=O)S(=O)(=O)c1ccc(C)cc1,-8,5,nt,nt,-3,6174,1.6
